High-throughput results (PubChem)
NPYLR7 ag: mosquito NPYLR7 agonism. HEK293T NPYLR7/Galpha15, GCaMP6s calcium fluorescence. activation, % at 10 µM. 270,000 tested, 0.15% active; in the data active means activation above about 40%;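 further: 0% = vehicle and 100% = reference agonist at the receptor; some compounds past the cut are filed as inactive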
NPYLR7 ag max-min: second read-out of NPYLR7 ag, no call of its own (marks repeat the call); activation, %; measured here: Max-Min RFU normalised activation; some inactives read as strong as hits;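 span of the calcium signal over five minutes; 0% = vehicle and 100% = native peptide agonist; compound fluorescence can raise it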
The depositor's hits bear a star; & = joins results of further samples. An excerpt (hit frequency here may not be typical).

Start of the data: the first 2 records, to show the layout:
SMILES | NPYLR7 ag | NPYLR7 ag max-min
CC(C)Oc1cccc(C(=O)C2CCCN(S(=O)(=O)c3cccc4cccnc34)C2)c1 (stereo not drawn) | 6 | 2
Cc1[nH]c(=O)sc1C(=O)NCc1cccc([N+](=O)[O-])c1 | 10 | 3

This part in full (from the top)
SMILES | NPYLR7 ag | NPYLR7 ag max-min
CC(C)Oc1cccc(C(=O)C2CCCN(S(=O)(=O)c3cccc4cccnc34)C2)c1 (stereo not drawn) | 6 | 2
Cc1[nH]c(=O)sc1C(=O)NCc1cccc([N+](=O)[O-])c1 | 10 | 3
COC(=O)c1c(C)oc2cc(Br)c(OS(C)(=O)=O)cc12 | -4 | -8
COc1ccc2cc(C(=O)N3CCC(C(=O)N(C)C)CC3)ccc2c1 | 9 | 5
COC(=O)[C@H]1C[C@@H](O)CCN1S(=O)(=O)Cc1ccccc1Cl | 17 | -1
O=c1ccn(Cc2nc(-c3ccc(Br)o3)no2)c(=O)[nH]1 | 0 | 55
CCn1c(SCC(=O)N2CCCc3ccccc32)nnc1C1CC1 | 1 | 1
CC(=O)Nc1cnc(-c2ccccc2C(C)=O)cn1 | 1 | 1
Cc1sc(-c2cnccn2)nc1-c1cccc(Cl)c1 | -3 | -4
Nc1nnc(SCc2ccc(CC(=O)O)cc2)s1 | -12 | -10
O=C(NCC1CCCN(Cc2ccc3nsnc3c2)C1)c1cccs1 (stereo not drawn) | 6&-6 | 4&-8
COc1ccc(CCN2CC(NC(=O)c3oc(C)cc3C)CC2=O)cc1 (stereo not drawn) | 17 | 4
Nc1ccc(SC(F)(F)F)cc1 | 0 | -2
CCCCOC(=O)C1=C(C)N(C)C(=O)NC1c1ccc([N+](=O)[O-])cc1 (stereo not drawn) | 4 | 1
O=C(CSc1nc(=O)[nH]c2c1CCCC2)c1ccc(F)cc1 | 0 | -5
CCn1c(C2CCN(C(=O)c3cccc4c(C)c(C)[nH]c34)CC2)n[nH]c1=O | 3 | 1
O=C(Nc1ccc2c(c1)CN(C1CCOCC1)CC2)c1ccc(C(F)(F)F)cc1 | 11 | 4
CCOCCNC(=O)c1c(C)noc1-c1ccc(C(C)(C)C)cc1 | -3 | 5
CC(C)NS(=O)(=O)c1cccnc1Cl | 3 | -1
CC(c1nc2scc(-c3ccco3)c2c(=O)[nH]1)N(C)Cc1ccccc1Br (stereo not drawn) | 2 | 1
CC(c1ccccc1Cl)N1CCC(C(N)=O)CC1 (stereo not drawn) | 0 | 0
Cc1cc2nc(N(CCCN3CCOCC3)C(=O)c3ccco3)sc2cc1C | 3 | -4
Cc1cccnc1NCCNCc1c(C)cc(C)c(CO)c1C | -2 | 4
CCc1ccccc1NC(=O)c1ccc(S(=O)(=O)NCCOC)cc1 | -1 | -2
CCOc1ccccc1NC(=O)N1C[C@H](N(C)C)C[C@H]1CO | 9 | 6

Next part, overlapping the part above by 4 compounds.
SMILES | NPYLR7 ag | NPYLR7 ag max-min
Cc1cc2nc(N(CCCN3CCOCC3)C(=O)c3ccco3)sc2cc1C | 3 | -4
Cc1cccnc1NCCNCc1c(C)cc(C)c(CO)c1C | -2 | 4
CCc1ccccc1NC(=O)c1ccc(S(=O)(=O)NCCOC)cc1 | -1 | -2
CCOc1ccccc1NC(=O)N1C[C@H](N(C)C)C[C@H]1CO | 9 | 6
O=C(CCCSc1ccc(NC(=O)c2ccc(F)cc2)nn1)NC1CC1 | -7 | -7
Cc1ccccc1SC1CCN(C(=O)c2cn(C3CCCCCC3)nn2)CC1 | 6 | 2
O=C(c1csc(-c2ccc(F)cc2)n1)N1CCN(S(=O)(=O)c2ccc(F)c(Cl)c2)CC1 | 1 | -2
CC1(C(=O)Nc2cnc3ccccc3c2)CCN1CCOc1ccccc1 (stereo not drawn) | 8 | -1
CCC(C)NC(=O)c1cnn2c1NC(c1cccs1)CC2C(F)(F)F (stereo not drawn) | -1 | 0
CCCCNC(=O)c1csc(CN(CCCC)C(=O)Nc2ccc(F)c(F)c2)n1 | 16 | 14
CCOc1ccc2ccccc2c1C(=O)N[C@@H]1C(=O)N2[C@@H]1SC(C)(C)[C@@H]2C(=O)O | -2&2 | 0&-3
O=C(Nc1cccc(Cl)c1)N(Cc1ccc(OS(=O)(=O)c2cccc(C(F)(F)F)c2)cc1)Cc1ccco1 | -2 | 7
CC(C)(C)c1ccc(OCC(=O)Nc2ccccc2C(=O)Nc2ccc(C(=O)O)cc2)cc1 | 11 | 13
O=C(Nc1cccc(CS(=O)(=O)C2CCCCC2)c1)c1ccoc1 | 3 | -1
Cc1cc(C(=O)N(C)[C@@H]2CS(=O)(=O)C[C@H]2O)c(-c2ccccc2)o1 | 5 | 4
COC(=O)c1sc2nc[nH]c(=O)c2c1CC(=O)O | -1 | -1
Cc1[nH]n(-c2cccc(Cl)c2)c(=O)c1C1=C([n+]2ccccc2)C(=O)N(Cc2ccccc2)C1=O | -5 | -1
Cc1nc(C(C)NC(=O)c2cnc(Nc3ccccc3)nc2)n[nH]1 (stereo not drawn) | 1 | 1
NC(=O)C(=O)NCc1cccnc1Oc1ccc(F)cc1F | 0 | 1
COCCN1C(=O)CC2(C1=O)C(=O)N(CCCOc1ccccc1OC)c1ccc(Cl)cc12 (stereo not drawn) | -13 | -18
CC(CNC(=O)c1cccn1C)N1CCc2ccccc2C1 (stereo not drawn) | 0 | 0
Cc1ccc(S(=O)(=O)N2CCCCC2)cc1S(=O)(=O)Nc1cn[nH]c1 | 1 | 2
O=C(NCCc1ccccc1Cl)c1sc2ccccc2c1Cl | 5 | 5
Cc1cc(CC(C)NC(=O)c2cc3ncccn3n2)n[nH]1 (stereo not drawn) | 8 | 4
O=C1/C(=C/c2ccc(-c3ccc([N+](=O)[O-])cc3)o2)C=C(c2ccccc2)N1c1ccccc1Br | 1 | 5
O=C(Nc1cccc2ccccc12)c1c(O)c2ccccc2[nH]c1=O | 2 | -1
CC(C)n1c(CN2CCN(C)CC2)nc2c1c(=O)n(C)c(=O)n2C | 1 | 12
CC(C)c1ocnc1C(=O)OCC1CC(=O)N(c2ccccc2)C1 (stereo not drawn) | 12 | 10
CC(C)C1CN(C(=O)CCc2ccncc2)CCCN1Cc1ccc(F)cc1 (stereo not drawn) | 6 | 2

(cont.)
SMILES | NPYLR7 ag | NPYLR7 ag max-min
Cc1cc(C)n(CCn2ccnc2-c2cc3ccccc3o2)n1 | -1 | -3
COc1ccccc1CN(Cc1cccc(C(F)(F)F)c1)Cc1nc(C(=O)NCCc2ccccn2)co1 | 26 | 31
O=c1[nH]c(SC2CCCC2)nc2c1cnn2CCO | 0 | -1
CN1CCN(CC(=O)N2N=C3c4ccccc4CCC3C2c2ccc(F)cc2)CC1 (stereo not drawn) | 5 | 4
C=CCn1c(-c2nnc(CC)o2)cc2ccccc21 | -4 | -4
COc1ccc(OC)c(CN2CCCn3cccc3C2c2ccc(F)cc2)c1 (stereo not drawn) | -9 | -9
Cc1ccc(NC(=O)Cn2nnc(C(=O)NCc3ccc(F)cc3)c2N)c(Cl)c1 | -11 | -18
Cc1ccccc1C1CCCN(C(=O)c2cn(C3CCCCCC3)nn2)C1 (stereo not drawn) | 7 | -4
Nc1ncc(Br)cc1S(=O)(=O)Nc1cccnc1 | 1 | -3
O=C1c2ccccc2C(=O)c2cc(I)ccc21 | -2 | -7
O=C(O)CN(C=CC(=O)C(F)(F)F)CC(=O)O | -11 | -17
CC1=C(C(=O)OCCc2ccccc2)C(c2ccc(O)c([N+](=O)[O-])c2)NC(=O)N1 (stereo not drawn) | -7 | -11
COc1ccc(-n2c(SCc3ccc(C(=O)NC4CC4)cc3)nnc2-c2ccc(C)cc2)cc1 | -2 | -3
O=C1NC2(CCCC2)Oc2ccccc21 | 16 | 12
COc1ccccc1CCNC(=O)CSc1nc2sccc2c(=O)[nH]1 | -4 | -5
Cc1c(C(=O)N2CCN(C(=O)/C=C/c3ccccc3)CC2)cc(-c2ccc(Cl)cc2)n1-c1ccccc1F | 14 | 16
COc1ccc(-c2c(C)nn3c4c(nnc23)C(=O)CC(C)C4)cc1 (stereo not drawn) | -12 | -19
COc1ccc2[nH]c3c(c2c1)CCN(C(=O)c1ccc(C(F)(F)F)c(F)c1)C3COCc1ccccc1 (stereo not drawn) | -15 | -10
COc1ccc(Cl)cc1C(=O)Nc1nn(C)c2c1C(C)CC(=O)N2 (stereo not drawn) | -20 | -22
COc1ccc(C(=O)CSc2ccc3nnc(CCNC(=O)c4ccc(C)cc4)n3n2)cc1 | 7 | -4
N#CCCC(C#N)CSc1nnc(C2CC2)n1C1CC1 (stereo not drawn) | 0 | 0
Cc1ccc(Cl)c(NC(=O)CN2CCOC(C)C2)c1Cl (stereo not drawn) | -6 | -8
COc1ccccc1/C=C/CN1CCC2(CC1)C(=O)NCCN2C | 7 | 9
CCOCCOc1nc(-c2ccc3c(c2)OCO3)n(-c2ccc(NC(=O)c3ccc(F)cc3)cc2)n1 | 15 | 19
Cc1ccccc1C(NC(=O)C1CCN(CCCOc2ccccc2)CC1)c1ncccc1C (stereo not drawn) | 21 | 14

Single values from above:
Under NPYLR7 ag, COc1ccc(-c2c(C)nn3c4c(nnc23)C(=O)CC(C)C4)cc1 (stereo not drawn) shows -12
Under NPYLR7 ag max-min, COc1ccc(-n2c(SCc3ccc(C(=O)NC4CC4)cc3)nnc2-c2ccc(C)cc2)cc1 shows -3
Under NPYLR7 ag, CC1=C(C(=O)OCCc2ccccc2)C(c2ccc(O)c([N+](=O)[O-])c2)NC(=O)N1 (stereo not drawn) shows -7
Under NPYLR7 ag, O=C1NC2(CCCC2)Oc2ccccc21 shows 16
Under NPYLR7 ag max-min, CN1CCN(CC(=O)N2N=C3c4ccccc4CCC3C2c2ccc(F)cc2)CC1 (stereo not drawn) shows 4

The results go on.
SMILES | NPYLR7 ag | NPYLR7 ag max-min
O=C1C(=O)N(CO)C(c2ccccc2)C1=C(O)c1ccccc1 (stereo not drawn) | 15 | 10
CCOCCOc1nc(-c2ccccc2F)n(-c2ccc(NC(=O)C(Cl)Cl)cc2)n1 | 12 | 22
CCCN1C(=O)NC(c2ccc(F)c(F)c2)C(C(=O)OC)=C1C (stereo not drawn) | 2 | 0
CC(N)=C(C#N)C(=O)CSc1nnc(C)s1 | 0 | 0
O=C(Cn1cnc2cc(F)c(F)cc21)Nc1cccc(F)c1 | 12 | 6
CCc1cccc2c(CCNC(=O)CCN3CCSC3=O)c[nH]c12 | -1 | -6
COc1c(C)cc(-c2cc(N3CCN(C)CC3)nc(N)n2)cc1C | 17 | 13
CCOc1nc(-c2ccc(Cl)c(Cl)c2)n(-c2cccc(NC(=O)COC)c2)n1 | 7 | 17
Cc1cc(C)n2nc(SCC(C)C)nc2n1 | 2 | 3
CCc1nnsc1C(=O)NCc1ccc(C)n1C | 1 | 2
c1cc(-c2nccn2CCn2ccnc2)ccn1 | -4 | -5
COC1CCCN(C(=O)CCc2cccc(F)c2)C1 (stereo not drawn) | -6 | -9
Brc1ccc(-c2nc(-c3ccccn3)no2)o1 | 3 | 2
COCC(=O)NC1CCN(c2ccccc2C(=O)N2CCN(c3ccc(Cl)cc3)CC2)CC1 | -3 | -1
Cc1nnc(NCc2ccc(N3CCSCC3)cc2)c(C#N)c1C | 1 | -2
COc1ccc(CCCN(C)S(=O)(=O)c2ccc(S(=O)(=O)N3CCCC3)cc2)cc1OC | 1 | 1
CCN1C(=O)NC(c2ccc(C)cc2C)C2=C1CN(C(CC(C)C)C(=O)NCCCOC)C2=O (stereo not drawn) | 5 | 13
Nc1nc(SCc2ccccn2)[nH]c(=O)c1NC(=O)c1ccc(F)c(F)c1 | -2 | -2
Cc1occc1C(=O)n1c(C)csc1=Nc1ccc(C(=O)O)cc1 | -6 | -6
COc1cc(OC)cc(C(=O)NCC2CCCN(Cc3cnn(C)c3)C2)c1 (stereo not drawn) | 14 | 4
CC1CN(C(=O)c2cnn(C)c2NC(=O)c2ccc(F)cc2Cl)CC(C)O1 (stereo not drawn) | 3 | 0
COc1ccc(/C=C/C(=O)NNC(=O)COc2ccc([N+](=O)[O-])cc2)cc1 | -4 | -6
CC1(C)N=C(N)NC(Nc2ccc(Br)cc2)=N1 | 2 | 1
COc1cc(C)ccc1-n1c(CCC(=O)NCCN2CCCC2)cc2c1-c1ccccc1OC2 | 0 | -3
C=c1ccccc1=C1C=NNC(=NCCCC(=O)OC)N1 | -8 | -8

Further compounds
SMILES | NPYLR7 ag | NPYLR7 ag max-min
Cc1cc(=O)[nH]c(-n2nc(C3CC3)cc2NC(=O)c2ccc3c(c2)OCO3)n1 | 1 | 0
CC1=NOC(C(=O)NCCOc2ccccc2F)C1 (stereo not drawn) | 22 | 14
CCCc1c(C)nn(-c2ccc(C(=O)N3CCC(C(=O)OCC)CC3)cc2)c1C | -8 | -13
C[C@@H](NC(=O)N1CCC(n2cc(-c3cccnc3)nn2)CC1)c1ccccc1 | -2 | -4
CN1CCN(C(=O)c2cc3n(n2)C(C(F)(F)F)CC(c2ccccc2)N3)CC1 (stereo not drawn) | 3 | -3
Cc1cccc(C)c1Cn1c(C)c(C(=O)NCc2ccc(Cl)c(Cl)c2)sc1=O | 11 | 5
COc1ccc2cc(C(=O)C3CCCN(C(=O)C4=NN(C)C(=O)CC4)C3)ccc2c1 (stereo not drawn) | 14&-3 | 4&-6
O=C(O)c1nn(Cc2ccccc2C(F)(F)F)c(=O)c2ccccc12 | -6 | -6
NC(=O)N/N=C\c1c[nH]c2ccccc12 | -6 | -7
CCN(CC)C(=O)N1CCN(C(=O)c2cc3cc(Cl)ccc3[nH]2)CC1 | 3 | 2
CC(C)(C#N)c1ccc(NS(=O)(=O)CC2CCCCO2)cc1 (stereo not drawn) | -3&-5 | -4&-5
Cc1ccccc1C(C(=O)N1CCN(C2CCOCC2)CC1)N(C)C (stereo not drawn) | 0 | -2
Cc1c(C(=O)Nc2cc(-n3c(C)nc4ncccc4c3=O)ccc2F)cccc1[N+](=O)[O-] | 3 | 1
Cn1c(=O)n(CCN2CCOCC2)c(=O)c2c1nc1n2CCCN1c1ccccc1 | 5 | 7

Compound profiles, from the list above. Screens in order: NPYLR7 ag | NPYLR7 ag max-min
Cc1ccc(S(=O)(=O)N2CCCCC2)cc1S(=O)(=O)Nc1cn[nH]c1 is listed with 1 | 2
CCC(C)NC(=O)c1cnn2c1NC(c1cccs1)CC2C(F)(F)F (stereo not drawn) is listed with -1 | 0
